Screening data (PubChem)
HNF4A DNA FP: change in binding of human HNF4 alpha to DNA. P41235. activity change, % at 10 µM. 360,000 tested, 0.3% active. AID 1224865. HNF4a-FITC DNA binding, fluorescence polarization, 1 h; in the data active = activity change above about 30%, passing the limit was not always enough;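 also: controls were the assay level and a saturating level of protein; the project sought stronger binding though the title names inhibitors; some compounds called inactive have numbers as strong as hits; positive values seem to mean higher polarization but the record does not say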
Target sequence (P41235 whole entry, looked up): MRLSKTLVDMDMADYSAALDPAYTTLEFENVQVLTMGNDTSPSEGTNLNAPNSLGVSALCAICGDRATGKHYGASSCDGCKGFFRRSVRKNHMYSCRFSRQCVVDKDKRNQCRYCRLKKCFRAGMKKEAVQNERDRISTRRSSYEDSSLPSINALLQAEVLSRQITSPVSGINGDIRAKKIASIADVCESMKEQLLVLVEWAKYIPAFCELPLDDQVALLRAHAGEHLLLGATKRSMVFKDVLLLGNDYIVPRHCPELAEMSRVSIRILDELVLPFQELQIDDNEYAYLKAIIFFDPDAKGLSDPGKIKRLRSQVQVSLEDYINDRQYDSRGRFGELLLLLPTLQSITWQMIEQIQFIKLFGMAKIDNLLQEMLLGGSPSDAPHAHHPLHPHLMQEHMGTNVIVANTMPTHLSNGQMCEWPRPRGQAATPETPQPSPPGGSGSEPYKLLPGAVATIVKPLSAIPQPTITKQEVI
ALR inh: human ALR oxidase inhibition via reduced H2O2. P55789. purified ALR, DTT oxidation, H2O2 HRP-luminol luminescence. inhibition, % (no concentration beside the values). 290,000 tested, 3.8% active. AID 485317;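 active = mean and each replicate at 75% or more; inconclusive = only one of the two met; inactive = neither met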;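 also: stock transfer was 7.5 nL into about 7.5 µL; 0% = neutral wells and 100% = wells with inactivated enzyme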
FGF22 binding: shifts melting point of recombinant human FGF22 | 340,000 tested, 1.5% active | calls only at 9.99 µM | AID 651658 | recombinant FGF22 thermal shift, SYPRO orange fluorescence; percent of sucrose octasulfate shift, DMSO zero;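 active = melting point raised past a set limit in the mean and every replicate; inconclusive = no clear call; three in four hits are not shown here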
Ecoli growth: E. coli growth inhibition; AID 1053175; Escherichia coli growth, OD600, 23 h; stronger effect = lower value; 330,000 tested, 0.21% active; OD600 absorbance (no concentration beside the values);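 active = OD600 absorbance below the run mean of sample wells minus 3.6 SD, in any replicate, cut at about 0.56 in these data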;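 also: stock transfer was 300 nL into about 60 µL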
Vif A3G: inhibitors of Vif binding to APOBEC3G peptide, primary screen, biochemical, TR-FRET, GST-Vif 1-94, biotin-A3G peptide, dose response retest (AID 1117319) | TR-FRET GST-Vif / biotin-A3G peptide binding; higher % means a stronger effect; test concentration not given here; strong numbers were not always called active | inhibition, %, or IC50 in µM where a hit was titrated | 260,000 tested, 0.57% active;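 active = above the screen mean plus three standard deviations and confirmed in dose response; inconclusive = results disagree or hit not tested in dose response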;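 also: Vif residues 1-94 fused to GST binding biotinylated APOBEC3G peptide 110-148; 0% = full assay without inhibitor and 100% = GST in place of GST-Vif; retest series ran down from 100 µM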
AF4-AF9 inh: blocks AF4 peptide binding to human AF9 | AlphaScreen, biotin-AF4 peptide binding to FLAG-AF9 | 350,000 tested, 0.47% active | P42568 | inhibition, % at 10 µM;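 active = every replicate reaching a set inhibition limit, whatever the replicate mean, cut at about 25% in these data; inconclusive = mean inhibition reaches that limit but some replicates miss it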;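 also: 0% = plate neutral control median and 100% = total signal loss; the record names both 10 and 1 µM as test concentration; the first replicate is given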
Target sequence (P42568 whole entry, looked up): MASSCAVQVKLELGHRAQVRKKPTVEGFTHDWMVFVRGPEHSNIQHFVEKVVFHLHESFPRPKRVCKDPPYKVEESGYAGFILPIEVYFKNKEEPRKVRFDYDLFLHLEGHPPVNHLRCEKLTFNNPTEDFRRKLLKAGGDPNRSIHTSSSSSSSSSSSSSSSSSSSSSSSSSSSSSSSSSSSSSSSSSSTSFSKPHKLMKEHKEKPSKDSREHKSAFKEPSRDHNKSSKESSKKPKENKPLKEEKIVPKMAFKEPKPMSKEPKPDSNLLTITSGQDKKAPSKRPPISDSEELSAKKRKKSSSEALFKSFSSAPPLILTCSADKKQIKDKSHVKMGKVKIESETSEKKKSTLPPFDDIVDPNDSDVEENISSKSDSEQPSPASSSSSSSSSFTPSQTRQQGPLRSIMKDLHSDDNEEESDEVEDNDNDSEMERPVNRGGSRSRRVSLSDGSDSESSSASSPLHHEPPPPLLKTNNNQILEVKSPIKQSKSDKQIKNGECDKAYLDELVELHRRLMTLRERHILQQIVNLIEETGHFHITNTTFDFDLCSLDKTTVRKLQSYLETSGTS
rRNA inh HTS: inhibits bacterial ribosomal RNA function over humanized ribosomes; GFP signal change (wild-type ribosome), % (no concentration beside the values); E. coli WT GFP vs humanized-ribosome RFP mutants, fluorescence, 24 h; stronger effect = lower value; DMSO median 0, no signal -100; 350,000 tested, 1.6% active;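 active = significant combined selectivity score with lowered wild-type GFP, culture density cut under 30%, mutant RFP and density less affected; inactive = any of these conditions unmet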; also: one replicate is shown; some compounds called inactive have numbers as strong as hits
rRNA inh HTS OD600: further read-out of rRNA inh HTS, marked with its call; OD600 change, %; measured here: OD600 growth;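 optical density of the mix in the first replicate; 0 = DMSO median and -100 = no signal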
rRNA inh HTS RFP: second read-out of rRNA inh HTS, no call of its own (marks repeat the call); RFP signal change, %; measured here: RFP humanized mutant strains;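 first replicate; 0 = DMSO median and -100 = no signal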
Active calls of the source: *; i = inactive; ? = inconclusive; . = no result given. Some of the compounds tested; rates above refer to the full screens.

canonical_smiles	HNF4A DNA FP	ALR inh	FGF22 binding	Ecoli growth	Vif A3G	AF4-AF9 inh	rRNA inh HTS	rRNA inh HTS OD600	rRNA inh HTS RFP
COc1cc(S(=O)(=O)NC2CCCC2)ccc1F	0.6	2.6	.	0.645	10.6%	.	.	.	.
COC(=O)c1c(NC(=O)C2CCCO2)sc2c1CCC2 (centres undefined)	-4.1	47.2	.	0.721	0.9%	.	.	.	.
O=C(Nc1ccc(N2CCOCC2)cc1)C1CCN(S(=O)(=O)c2ccc3c(c2)OCCO3)CC1	-2.0	4.6	i	0.651	17.8%	-10.4	1.5	4.2	-1.7
CC(C)Cn1c(N2CCN(C(=O)/C=C/c3ccccc3)CC2)nc2ccccc21	-6.2	-12.1	i	0.653	-0.5%	2.8	-48.6	-75.5	-9.0
COc1ccc(CN2CCN(Cc3ccc(C)cc3)C(CCO)C2)cc1OC (centres undefined)	0.0	-6.5	i	0.675	?	6.3	4.6	4.3	-4.2
N#CCc1nn(-c2ccc(F)cc2)c(N)c1C#N	-2.3	-11.7	i	0.631	-2.9%	0.9	14.2	19.6	1.2
O=C(O)c1ccc2c(c1)CCC2	-2.8	-7.6	i	0.678	2.3%	-2.7	-1.2	2.4	-1.8
COC(=O)c1cccc(NC(=O)CCCOc2cccc(C)c2)c1	-2.0	.	.	0.677	25.4%	.	.	.	.
Cc1ccc(CNC(=O)CSc2nccn(-c3ccc(C)c(F)c3)c2=O)cc1	-1.1	98.5*	i	0.728	-3.9%	-38.7	7.4	9.0	1.5
COc1ccc(NC(=O)CSc2ccc3ccccc3c2)cc1S(=O)(=O)N1CCCCC1	0.5	28.2	i	0.717	-10.0%	1.7	-1.2	8.9	5.5
O=C(NCc1cccs1)C1CC1	1.5	14.7	i	0.689	-5.3%	-1.7	21.6	9.5	-3.3
CCOC(=O)C1CCCN(CC(=O)Nc2c(C(=O)OC)[nH]c3ccc(C)cc23)C1 (centres undefined)	0.7	.	.	0.681	-0.6%	.	.	.	.
CCCc1c(C)c(C#N)c2nc3ccccc3n2c1NCCCN1CCOCC1	1.2	-9.7	.	0.688	21.6%	.	.	.	.
COc1cccc(NC(=O)CN(C)C(=O)C2CCN(C(=O)c3ccccc3C)CC2)c1	3.0	-0.3	.	0.717	-13.0%	-8.0	8.7	8.0	-1.0
O=C(COC(=O)Cn1cnc2ccccc21)Nc1ccc2c(c1)OCCO2	0.6	-4.9	.	0.721	-6.1%	.	.	.	.
c1ccc2c(NCCCN3CCOCC3)c3ccccc3nc2c1	.	4.5	i	0.63	.	0.4	-26.5	-60.2	-1.1
O=C(CCCSc1nc2ccccc2[nH]1)NCc1ccco1	-4.7	-2.3	.	0.659	-4.5%	.	.	.	.
CN(Cc1ccccc1)S(=O)(=O)c1ccc(Cl)c(C(=O)O)c1	-1.3	-3.3	i	0.686	.	-16.2	10.8	6.2	-0.9
CCOC(=O)N1CCN(C(=O)CN(c2ccc(OC)c(OC)c2)S(C)(=O)=O)CC1	-2.0	-4.5	.	0.661	-1.4%	.	.	.	.
N#C[C@@H]1[C@@H](c2ccccc2-c2ccccc2)[C@H](CO)N1C(=O)NC1CCCC1	.	.	i	.	.	1.3	-9.7	-59.0	8.6
O=C(COC(=O)c1ccc([N+](=O)[O-])cc1Cl)NCc1ccco1	0.1	.	i	0.677	-4.1%	2.5	-0.8	7.0	-7.5
C/C=C/c1ccc(OCCSc2nc(C)cc(=O)[nH]2)c(OC)c1	0.4	-20.2	.	0.692	-3.9%	.	.	.	.
O=C(COC(=O)CCCN=C1NS(=O)(=O)c2ccccc21)NNC(=O)c1ccccc1	-1.1	-0.1	i	0.677	6.5%	13.8	11.5	10.9	0.0
CC=Cc1ccc2n(c1=O)C[C@@H]1[C@@H](CO)[C@H](C(=O)N3CCCCC3)N(C(=O)CC)[C@H]21 (mixture of isomers)	.	.	i	.	.	-1.1	-2.4	4.7	0.1
O=C1N(CC(=O)N2CCc3ccccc32)CCN1Cc1ccccc1Cl	1.8	-7.8	.	0.783	-0.1%	.	.	.	.
C=CCN(CC(=O)O)S(=O)(=O)c1ccccc1C(F)(F)F	0.8	.	i	0.714	-4.9%	-1.1	12.3	5.7	3.3
Nc1cc(=O)nc(SCC(=O)N2CCN(c3ccccc3)CC2)n1-c1ccc(F)cc1	-6.1	49.1	i	0.652	.	1.5	3.5	1.2	3.5
CCOC(=O)C1CCCC12Nc1cccc3cccc(c13)N2 (centres undefined)	-8.0	.	i	0.671	3.74µM*	3.3	3.5	16.3	3.4
COCC#Cc1ccc2c(c1)O[C@@H](CN(C)S(=O)(=O)c1ccc(OC)cc1)[C@H](C)CN([C@H](C)CO)S2(=O)=O	.	.	i	.	.	3.0	-2.5	-4.9	6.9
CCNC(=O)C[C@@H]1CC[C@H]2[C@H](COc3ccc(NC(=O)Nc4ccccc4F)cc3C(=O)N2C)O1	.	.	i	.	.	0.2	-1.4	-7.2	0.6
S=c1[nH]nc(COc2cccc3ccccc23)n1Cc1ccccc1	-5.0	.	i	0.686	-1.0%	0.0	-11.1	-11.1	1.2
CCOC(=O)/C=C1\SCC(=O)N1CC(=O)NC1CCCCC1	-0.9	-2.1	i	0.628	7.8%	-3.4	8.6	1.6	1.5
C(=C\c1nc(-c2cccnc2)no1)/c1ccccc1	3.0	1.6	i	0.679	13.6%	7.9	-6.1	9.4	-3.5
CSCC[C@H](NC(=O)COc1ccc(Cl)cc1)C(=O)N1CCC2(CC1)NCCc1[nH]cnc12	1.4	12.8	i	0.685	.	5.1	4.3	2.2	7.4
CS(=O)(=O)N(Cc1ccccc1)c1ccc(C(=O)N2CCN(c3cccc(Cl)c3)CC2)cc1	6.5	-7.5	i	0.725	-4.5%	0.3	-15.2	-7.1	0.9
C[C@@H]1CN(C(=O)c2cc(COc3cccc(C(F)(F)F)c3)on2)C[C@H](C)O1	2.6	0.8	i	0.65	.	-1.9	13.1	13.8	3.3
CC(NCC(=O)Nc1ccccc1C(=O)NC1CC1)c1ccco1 (centres undefined)	1.1	.	i	0.669	3.5%	-0.3	2.9	5.3	-0.8
O=C(c1cc(COc2ccc(F)cc2Cl)on1)N1CCc2sccc2C1	1.9	-14.9	i	0.679	-3.4%	-1.1	4.1	-0.3	4.9
CC(C)NS(=O)(=O)c1ccc(OCC(=O)N2CCc3ccccc3C2)cc1	-1.6	-10.8	i	0.666	1.0%	-2.5	4.6	-0.1	-2.6
C[C@H]1CN([C@@H](C)CO)S(=O)(=O)c2ccc(C#Cc3ccncc3)cc2O[C@H]1CN(C)C(=O)C1CCOCC1	.	.	i	.	.	2.2	-3.0	-6.7	2.6
COc1cccc(CNCc2cccc(Br)c2)c1OC	-2.0	-1.0	i	0.666	0.0%	2.2	0.6	-7.2	-2.7
Cc1ccc(/C=N/NC(=O)CNC(=O)COc2ccc(Cl)cc2)o1	1.9	-1.7	i	.	-0.3%	-1.1	13.7	7.4	-7.6
CCC(C(=O)NCCCN1CCN(C)CC1)n1nc(C)n2c(cc3occc32)c1=O (centres undefined)	-7.5	-2.0	i	0.699	.	1.8	26.1	12.2	2.1
Cc1ccccc1C(=O)Nn1cnc2ccccc2c1=O	-1.2	-14.0	i	0.674	-4.8%	-0.6	4.0	13.6	-0.1
COc1cc(CC(=O)OCC(=O)NCc2ccco2)cc(OC)c1OC	-7.7	-6.7	i	0.707	.	-14.3	5.0	9.6	-1.3
N#C/C(=C\c1cccnc1)c1ccccn1	0.6	-0.3	i	0.654	1.7%	0.9	6.1	12.0	-0.9
COC1=CC(=O)OC(c2ccccc2)C1 (centres undefined)	0.4	.	i	.	.	.	4.4	3.1	0.8
O=C(O)[C@@H]1CC(O)CN1C(=O)CCc1c[nH]c2ccccc12 (some centres undefined)	-0.7	-1.7	i	0.699	3.9%	-0.4	3.6	7.3	3.2
C=CCN(C(=O)CC(NC(C)=O)c1ccccc1)c1nc(-c2ccc(S(C)(=O)=O)cc2)cs1 (centres undefined)	2.1	-33.1	i	.	-6.1%	-0.8	-4.2	-6.7	0.6
O=C(Nc1cc(C(F)(F)F)ccc1N1CCOCC1)c1ccc(Cl)nc1	0.9	-0.6	.	0.631	4.2%	.	.	.	.
Cc1cccc(N(C)C(=O)c2cc(S(=O)(=O)N3CCCC3)cn2C)c1	1.8	-5.1	i	0.678	.	-6.8	7.7	2.8	-2.5
CCOc1ccc(N(CC(=O)Nc2cccc(OC)c2)S(=O)(=O)c2c(C)noc2C)cc1	7.5	-188.3	i	0.681	73.9%	-0.5	-7.4	-20.1	-1.1
CC(=O)Nc1cncc(-c2ccccc2F)n1	-4.7	.	i	.	.	-2.5	-0.4	3.5	2.1
Cc1noc(C)c1NC(=O)Nc1ccc2c(c1)C(=O)N([C@@H](C)CO)C[C@@H](C)[C@@H](CN(C)C(=O)C1CCCCC1)OCCCC[C@@H](C)O2	.	.	i	.	.	-1.1	-1.1	-4.8	-0.9
Cc1c(C(=O)N2CCCCC2)c(S(=O)(=O)Nc2ccc(F)cc2F)c(C)n1C	1.7	-1.4	i	0.69	-1.9%	0.9	2.2	6.9	-1.9
COC(=O)[C@@H]1[C@@H](C)N(Cc2ccccc2)C(=O)N[C@H]1c1cccc(C(F)(F)F)c1	0.9	4.7	i	.	-3.4%	1.0	-9.3	-25.3	-5.8
COc1ccc(CNS(=O)(=O)c2cc(CN3C(=O)c4cccnc4C3=O)ccc2OC)cc1	8.4	-2.6	i	.	.	1.5	-0.7	0.9	-0.5
COc1ccccc1CNC(=O)C[C@H]1CC[C@@H]2[C@@H](COc3ccc(NC(=O)Nc4ccc(F)c(F)c4)cc3C(=O)N2C)O1	.	.	i	.	.	-2.8	-5.3	-14.4	7.1
Cc1ccc(-c2nc3ccc(Cl)cn3c2Cc2ccsc2)cc1	5.6	.	i	.	.	3.6	-2.3	-12.4	-0.3
COCc1cc(CNC(=O)C2CCC(=O)N(Cc3ccccc3F)C2)[nH]n1 (centres undefined)	1.7	0.9	i	0.708	.	-1.1	5.9	12.7	2.7

Going on with the list:
canonical_smiles	HNF4A DNA FP	ALR inh	FGF22 binding	Ecoli growth	Vif A3G	AF4-AF9 inh	rRNA inh HTS	rRNA inh HTS OD600	rRNA inh HTS RFP
Cc1ccc(S(=O)(=O)N(C)C[C@@H]2Oc3ccc(NS(=O)(=O)c4ccc(Cl)cc4)cc3CC(=O)N([C@@H](C)CO)C[C@H]2C)cc1	.	.	i	.	.	-0.8	-0.9	3.8	1.1
O=C(NCCN1CCOCC1)c1cccc(Br)c1	0.1	-13.4	i	0.672	.	-0.6	2.0	6.8	-0.9
COCCN1C(=O)N[C@@H](c2ccccc2)C(C(=O)OC)=C1C	1.0	6.2	i	.	.	-0.9	-0.5	0.8	-4.8
Cc1cc(F)ccc1N1CCC(N2CCN(C)C(CCO)C2)CC1 (centres undefined)	3.2	.	i	0.677	.	-12.5	10.6	7.2	0.7
CN1CCN(S(=O)(=O)c2cccc(C(=O)NC3CCCC3)c2)CC1	-3.3	-2.0	i	0.69	2.7%	-20.6	8.4	9.0	1.8
CCOC(=O)c1ccc(NC(=O)N2CCN(Cc3ccccc3)CC2)cc1	3.0	-10.9	i	0.706	0.1%	1.6	-4.3	-4.7	0.6
CC(NC(=O)c1ccco1)C(=O)N1CCN(c2cccc(C(F)(F)F)c2)CC1 (centres undefined)	4.5	-10.9	i	0.717	.	-0.6	2.0	1.9	-1.1
